LANA-nucl inh: inhibitors of KSHV LANA-nucleosome binding, primary screen, biochemical, fluorescence polarization, FITC-LANA1-23, chicken nucleosomes; AID 720717, 2013; FITC-LANA1-23 / chicken nucleosome fluorescence polarization; hits give low values; hit rate 0.3% among 51,000; z-score (no concentration beside the values);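 active means both repeat wells score below -2 in polarization z-score versus plate sample wells, excluding overly bright wells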;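 further: 100 nL library stock added to about 30 µL; numbers are from one replicate; some results filed as inactive read as strong as hits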
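Test system: purified chicken nucleosomes with FITC-labelled LANA N-terminal peptide (1-23); Input: 240 nM purified chicken nucleosomes (480 nM peptide binding sites), final; Medium: TEN-BT buffer, pH 7.5; Timing: 10–45 min, room temperature; Technique: fluorescence polarization, 480 nm excitation, 535 nm parallel and perpendicular emission; Replication: duplicates.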
Ab BasE inh: BasE siderophore enzyme inhibitors, primary screen, biochemical, Acinetobacter baumannii ATCC 17978, fluorescence polarization; purified BasE, fluorescence polarization binding displacement; inhibition, % (concentration not given with the values); hit rate 0.1% among 84,000;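 active means both replicates above 25% with normal brightness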;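 further: 0% = negative plate control signal and 100% = positive plate control signal; stock transfer was 100 nL into about 30 µL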
Active calls of the source: *.

What do the screens show for `O=C1c2ccccc2C(=O)N1CCSC1=NN2CCS(=O)(=O)N=C2S1`?
Ab BasE inh: -5.0

What do the screens show for `COc1ccc(/C=N/NC(=O)Cn2cncn2)cc1`?
Ab BasE inh: 1.3

How did Cc1ccc(CNCC(O)COCC2CCCO2)n1C (configuration not stated) do in these assays?
Ab BasE inh: -1.5

What do the screens show for `O=C(CSc1nc2ccccc2[nH]1)NCc1ccccc1`?
Ab BasE inh: 0.3

Results for CC(C(=O)NCc1ccc2c(c1)OCO2)n1ncc(Cl)c(Cl)c1=O (configuration not stated) ?
Ab BasE inh: 0.4

Results for CC(Sc1nc2ccc(Br)cc2[nH]1)C(=O)O (configuration not stated) ?
Ab BasE inh: 2.1

What do the screens show for `COc1ccc(C(=O)OCC(=O)C(C)(C)C)c(OC)c1OC`?
Ab BasE inh: -6.8

How did CCOC(=O)c1c(C)oc2c1c(/C=N/c1cccc(C)n1)c(O)c1ccccc12 do in these assays?
Ab BasE inh: -11

Results for CC(C)(C)C(=O)C[n+]1ccc(/C=N/O)cc1 ?
LANA-nucl inh: 0.35; Ab BasE inh: -2.5

How did CC(C)(C)C(=O)CN1CCN(c2ccccc2O)CC1 do in these assays?
Ab BasE inh: 3.4

What do the screens show for `CCn1c(-c2ccccc2)c(C(=O)CN2CCN(C)CC2)c2ccccc21`?
Ab BasE inh: -13

How did COC(=O)CNC(=O)c1ccccc1Cl do in these assays?
LANA-nucl inh: 0.62; Ab BasE inh: 3.4

What do the screens show for `CCCc1cc(=O)[nH]c(SCC(=O)c2ccccc2OC)n1`?
Ab BasE inh: 0.8

How did Cc1ccc(NC(=O)Nc2c(C)noc2-c2ccc(C(F)(F)F)cc2)cc1 do in these assays?
LANA-nucl inh: -1; Ab BasE inh: 1.4

How did CCOC(=O)c1c(C)oc2ncnc(N(C)Cc3ccccc3)c12 do in these assays?
Ab BasE inh: 1.1

What do the screens show for `COC(=O)c1ccsc1NC(=O)C1COc2ccccc2O1` (configuration not stated)?
LANA-nucl inh: 1.5; Ab BasE inh: 0.4

Results for O=C(c1cc2ccccc2oc1=O)N1CCSC1c1ccco1 (configuration not stated) ?
LANA-nucl inh: 1.1; Ab BasE inh: 2.1

Results for CC1(C)Oc2ccc(N)cc2O1 ?
LANA-nucl inh: -0.19; Ab BasE inh: -1.1

How did O=c1cc(O)nc2c(Cl)cc(C(F)(F)F)cn12 do in these assays?
Ab BasE inh: -1.8

Results for CCOC(=O)N/N=C\c1cn(C)c2ccccc12 ?
LANA-nucl inh: 0.6; Ab BasE inh: 7.2

What do the screens show for `O=C(OC(C(=O)c1ccccc1)c1ccccc1)c1ccco1` (configuration not stated)?
Ab BasE inh: -1.1

What do the screens show for `CCOC(=O)c1ccc2[nH]c3c(c2c1)CCCCC3=O`?
LANA-nucl inh: 0.59; Ab BasE inh: 0.8

How did CCC1CCCCN1C(=O)CN1C(=O)c2ccccc2C1=O (configuration not stated) do in these assays?
Ab BasE inh: 0.3

What do the screens show for `CC(C)n1c(SCC(=O)O)nc2cc(Cl)ccc21`?
Ab BasE inh: 0.0

Results for COC(=O)COc1cc(C)nc(SC)n1 ?
LANA-nucl inh: 0.56; Ab BasE inh: 1.1

What do the screens show for `CC(C)NC(=O)Cc1ccc(Br)cc1`?
LANA-nucl inh: -0.38; Ab BasE inh: 2.6

What do the screens show for `FC(F)(F)c1ccc(CN2CCCCCCC2)cc1`?
LANA-nucl inh: -0.19; Ab BasE inh: 2.1

Results for O=C1Nc2ccccc2S/C1=C\c1ccccc1 ?
Ab BasE inh: 1.9

Results for O=C(Nc1cccc(-c2nnn(CC(=O)N3CCc4ccccc4C3)n2)c1)C1CCC1 ?
LANA-nucl inh: 0.25; Ab BasE inh: -4.3

How did O=C(COC(=O)c1ccccc1NCCO)NCc1ccc(F)cc1 do in these assays?
Ab BasE inh: -1.2

How did Cc1ccccc1N1C(=O)Cc2ccccc2C1=O do in these assays?
Ab BasE inh: -0.6

How did O=C(O)Cn1ncc2c3ccccc3n(Cc3ccccc3F)c2c1=O do in these assays?
LANA-nucl inh: 0.56; Ab BasE inh: 3.7

How did N#CCN1CCC/C1=C(/C#N)C(=O)c1ccccc1 do in these assays?
LANA-nucl inh: -0.3; Ab BasE inh: 3.5

Results for CCC(=O)N(c1nnc(SCC(=O)N2CCCC2=O)s1)C1CC1 ?
Ab BasE inh: 1.4

How did NC(=O)c1ccccc1OC(C(=O)N1CCCC1)c1ccccc1 (configuration not stated) do in these assays?
Ab BasE inh: -2.3

What do the screens show for `CCc1nc2cccnc2n1CCNC(=O)NC1CCCCC1`?
LANA-nucl inh: -0.99; Ab BasE inh: 8.5

How did CCOc1ccc(-c2cc(NC(=O)c3cc4ccc5cccnc5c4[nH]3)on2)cc1OCC do in these assays?
Ab BasE inh: -1.4

Results for Cc1ccc(CN2CCN(CC(=O)NCCCN3CCN(c4cccc(Cl)c4)CC3)C2=O)cc1 ?
LANA-nucl inh: -0.65; Ab BasE inh: -1.2

How did NC(=S)CS(=O)(=O)c1ccccn1 do in these assays?
Ab BasE inh: 0.0

How did CCOc1ccc(C(O)C2CCNCC2)cc1 (configuration not stated) do in these assays?
LANA-nucl inh: 0.53; Ab BasE inh: 1.8

Structures shown so far containing a furan ring, fused or not:
How did CCOC(=O)c1c(C)oc2c1c(/C=N/c1cccc(C)n1)c(O)c1ccccc12 do in these assays?
Ab BasE inh: -11

How did CCOC(=O)c1c(C)oc2ncnc(N(C)Cc3ccccc3)c12 do in these assays?
Ab BasE inh: 1.1

Results for O=C(c1cc2ccccc2oc1=O)N1CCSC1c1ccco1 (configuration not stated) ?
LANA-nucl inh: 1.1; Ab BasE inh: 2.1

What do the screens show for `O=C(OC(C(=O)c1ccccc1)c1ccccc1)c1ccco1` (configuration not stated)?
Ab BasE inh: -1.1

(cont.)
Results for Cc1ccc(S(=O)(=O)N/N=C2\C3CN4CCN(C3)CC2(c2ccccc2)C4)cc1 ?
LANA-nucl inh: 2; Ab BasE inh: -1.9

Results for Cc1ccnc(SC(=O)c2cccnc2)n1 ?
Ab BasE inh: 1.8

What do the screens show for `CC1(C)NC(=O)C(C#N)=C(SCc2ccccc2)S1`?
LANA-nucl inh: -1.2; Ab BasE inh: 38*

Results for CCn1c(/C(C#N)=C(\O)CCc2ccccc2)nc2ccccc21 ?
LANA-nucl inh: -0.32; Ab BasE inh: -0.2

How did CCc1oc2ccccc2c1C#N do in these assays?
Ab BasE inh: 0.3

Results for N#CCc1ccc(NC(=O)Nc2ccccc2)cc1 ?
Ab BasE inh: 1.5

How did Cc1cc(C)c(C2=NON3N(C(=O)c4cccs4)c4ccccc4N23)c(C)c1 do in these assays?
Ab BasE inh: 1.3

How did CC(C)(C)OC(=O)N/N=C\c1ccco1 do in these assays?
LANA-nucl inh: -1.1; Ab BasE inh: 0.8

What do the screens show for `CC(Sc1nnc(NC2CC2)s1)C(=O)Nc1ccc2c(c1)OCO2` (configuration not stated)?
Ab BasE inh: -0.1

What do the screens show for `Cc1nc(SCC(=O)Nc2ccc3c(c2)OCCCO3)n(C2CCCCC2)c1C`?
Ab BasE inh: 1.2

What do the screens show for `CN(C)c1cccc(C(=O)Nc2ccc(Br)cc2)c1`?
LANA-nucl inh: -0.84; Ab BasE inh: 2.3

What do the screens show for `Cc1cc(C)c(C)c(S(=O)(=O)N(C)C)c1C`?
LANA-nucl inh: 0.4; Ab BasE inh: 0.9

How did O=C(Nc1ccccc1Cc1ccccc1)c1cc2c(nc3sccn32)s1 do in these assays?
Ab BasE inh: -0.2

Results for Cc1ccc(N2CC(NC(=O)N(C)C3CCN(C)CC3)CC2=O)cc1C (configuration not stated) ?
LANA-nucl inh: -1.2; Ab BasE inh: -0.3

How did COC1(C(=O)NN)COc2ccccc2O1 (configuration not stated) do in these assays?
Ab BasE inh: 1.3

Results for CC1=C/C(=N\OC(=O)Cc2ccccc2)C(C)=CC1=O ?
LANA-nucl inh: -0.37; Ab BasE inh: 2.2

What do the screens show for `CCOC(=O)CC1=Nn2c(nnc2-c2ccc(Cl)cc2)SC1`?
Ab BasE inh: -0.4

How did CCOc1ccc(C(=O)NCC(=O)N2CCC(C)CC2)cc1OCC do in these assays?
Ab BasE inh: 0.8

Results for COc1ccc(OCC(=O)NCCc2ccccc2)cc1 ?
LANA-nucl inh: -0.72; Ab BasE inh: 0.9

How did Cc1cc(C)nc(SCC(=O)N/N=C2\CCc3ccccc32)n1 do in these assays?
Ab BasE inh: -3.5

Some of these compounds in order of molecular weight, largest number first:
How did CC(C)(C)C(=O)CN1CCN(c2ccccc2O)CC1 do in these assays?
Ab BasE inh: 3.4

Results for N#CCc1ccc(NC(=O)Nc2ccccc2)cc1 ?
Ab BasE inh: 1.5

Results for CC1(C)Oc2ccc(N)cc2O1 ?
LANA-nucl inh: -0.19; Ab BasE inh: -1.1

More compounds
What do the screens show for `CCOC(=O)c1cc(C)nn1C(=O)c1c(F)cccc1Cl`?
Ab BasE inh: 1.9

Results for Cc1cccc(CCNC(=O)c2ccc3c(=O)n(Cc4ccc5c(c4)OCO5)c(=O)[nH]c3c2)c1 ?
LANA-nucl inh: -2.1; Ab BasE inh: -1.6

Results for O=C1C(Cc2ccc(F)cc2)S/C(=N/N=C/c2cccnc2)N1Cc1ccco1 (configuration not stated) ?
LANA-nucl inh: -1.2; Ab BasE inh: -0.7

Results for COCC(=O)N(C)c1nnc(-c2ccc(OC)cc2)s1 ?
LANA-nucl inh: 0.035; Ab BasE inh: -1.3

How did NNC(=O)Cc1csc(-c2ccc(F)cc2)n1 do in these assays?
Ab BasE inh: 2.1

What do the screens show for `O=C(CCc1nc(-c2ccccc2)no1)Nc1cccnc1`?
LANA-nucl inh: -1.1; Ab BasE inh: 1.9

How did CC1(C)OC2C(CS(C)(=O)=O)OC(n3ncc(=O)[nH]c3=O)C2O1 (configuration not stated) do in these assays?
LANA-nucl inh: -0.12; Ab BasE inh: -0.1

Results for CO/N=C1/CC(C)(C)Cc2c(C(=O)O)sc(SC)c21 ?
LANA-nucl inh: -0.41; Ab BasE inh: 0.4

How did Cn1c(-c2ccc(Cl)cc2)cs/c1=N\C(=S)NCCc1ccccc1 do in these assays?
Ab BasE inh: 2.7

How did CCOC(=O)CCc1nn(C)c(=O)c2ccccc12 do in these assays?
LANA-nucl inh: -1; Ab BasE inh: 0.7

Results for O=C1c2ccccc2C(Nc2cccnc2)N1Cc1ccccc1 (configuration not stated) ?
LANA-nucl inh: -0.33; Ab BasE inh: 3.2

What do the screens show for `O=C(O/N=C1\CCCc2oc3c(c21)CCCC3)c1ccc(F)cc1`?
LANA-nucl inh: -0.2; Ab BasE inh: 2.3

Results for Cc1nc2ccc(NC(=O)C3=CC=CN4CCS(=O)(=O)N=C34)cc2s1 ?
Ab BasE inh: -4.8

Results for COc1cc(/C=c2\sc3nc(-c4oc5ccccc5c4C)nn3c2=O)cc(OC)c1OC ?
LANA-nucl inh: -0.25; Ab BasE inh: 3.3

Results for COC(=O)CC1SC(=O)NC1=Nc1ccc(OC)cc1 (configuration not stated) ?
LANA-nucl inh: -0.24; Ab BasE inh: 0.1

What do the screens show for `O=C(CSc1nnc(-c2ccco2)n1Cc1ccccc1)NC1CCCc2ccccc21` (configuration not stated)?
Ab BasE inh: -3.1

Results for O=C(c1nn2c(c1Cl)NC(c1cccs1)CC2C(F)(F)F)N1CCOCC1 (configuration not stated) ?
LANA-nucl inh: 0.21; Ab BasE inh: -0.3

Results for Cc1onc(-c2c(F)cccc2Cl)c1C(=O)N=C(N)N1CCOCC1 ?
LANA-nucl inh: 0.095; Ab BasE inh: 0.9

What do the screens show for `O=C(Cn1nc2n(c1=O)-c1ccccc1SC2)NC(=O)Nc1ccccc1`?
Ab BasE inh: -1.5

Results for O=C(O)CC(NS(=O)(=O)c1cccs1)c1ccccc1 (configuration not stated) ?
Ab BasE inh: -5.1

Results for O=C(c1ccccc1)n1nc(-c2ccco2)nc1SCc1ccccc1 ?
LANA-nucl inh: 0.65; Ab BasE inh: 0.8

What do the screens show for `Cc1ccc(C(=O)c2ccccc2C(=O)O)c(O)c1`?
LANA-nucl inh: -0.008; Ab BasE inh: -1.1

Results for c1nncn1/N=C1/CCCc2nonc21 ?
LANA-nucl inh: 0.62; Ab BasE inh: -2.1

How did Cn1cccc1C(C#N)c1ccccc1C#N (configuration not stated) do in these assays?
LANA-nucl inh: 0.6

How did Cc1ccc(CN(C)C(=O)c2cccc(N(C)C)c2)o1 do in these assays?
Ab BasE inh: 1.9

What do the screens show for `CC1(C)CC2CC(C)(CN2c2nc(N)c3c(N)nc4c(c3c2C#N)CC(=O)N4C2CCCC2)C1` (configuration not stated)?
Ab BasE inh: 0.0

Results for C1=C(c2ccccc2)Nc2nnnn2C1 ?
Ab BasE inh: -3.3

How did C=CCN(c1ccc(C(N)=O)cc1)S(C)(=O)=O do in these assays?
LANA-nucl inh: -0.94; Ab BasE inh: 1.4

What do the screens show for `CCC(CC)NC(=O)CCc1c(C)nc2nc(N)nn2c1C`?
Ab BasE inh: 2.3

What do the screens show for `CCc1c(C)nc2ncnn2c1N1CCC(C(=O)Nc2ccccc2)CC1`?
LANA-nucl inh: 0.8; Ab BasE inh: -1.1

Results for COc1cccc(NC(=O)Nc2cc(C(=O)O)ccc2N2CC3CC(C2)c2cccc(=O)n2C3)c1 (configuration not stated) ?
LANA-nucl inh: -0.58; Ab BasE inh: 1.1

What do the screens show for `O=C(Cn1c(=O)c2cccn2c2ccccc21)NCCCN1CCCC1`?
LANA-nucl inh: -0.16; Ab BasE inh: -0.8

Results for C=CCN1C(=O)S/C(=C/c2ccc(N3CCOCC3)cc2)C1=O ?
LANA-nucl inh: -1.3; Ab BasE inh: 4.4

Results for CCN=c1scc(-c2ccco2)n1/N=C/c1cccc(C(F)(F)F)c1 ?
Ab BasE inh: 1.9

Only part of the results is shown. The share of hits here may be higher or lower than overall.
